# YopH PTP inh: blocks Yersinia enterocolitica YopH tyrosine phosphatase | fluorescence Ex485/Em525 | inhibition, %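 (about 10 µM by stock and volumes)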 | actives 0.16% (n = 140,000) | AID 898;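 active means inhibition of 50% or more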;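 further: controls were vehicle for no effect and minimum signal wells for full effect; inactives centre near -20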
# Mtb betalactam: beta-lactam sensitization of Mtb H37Rv. actives 0.27% (n = 330,000). AID 434955. M. tuberculosis H37Rv growth with meropenem, percent inhibition; hits of this screen are not shown here. inhibition, % at 25 µM;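 active means about 74% or more and at least 40 points above the plate without the antibiotic, then above 30% in a dose series; inconclusive means first-round hits that could not be retested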;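 further: growth measured after seven days incubation then overnight dye step; 0% = bacteria only wells and 100% = bacteria with antibiotic; twin plates without the antibiotic show which effects depend on it; some results filed as inactive read as strong as hits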
# RecA splice inh: inhibitors of M. tuberculosis RecA intein splicing; cell-free RecA intein splicing, fluorescence; inhibition, %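 (about 9 µM by stock and volumes)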; actives 0.75% (n = 290,000); AID 2221; in the data active means inhibition above about 30%; inconclusive means no clear call, values can overlap the other calls;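 further: 0% = vehicle wells and 100% = reference inhibitor control wells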
# Target sequence (P9WHJ3 whole entry, looked up, canonical isoform): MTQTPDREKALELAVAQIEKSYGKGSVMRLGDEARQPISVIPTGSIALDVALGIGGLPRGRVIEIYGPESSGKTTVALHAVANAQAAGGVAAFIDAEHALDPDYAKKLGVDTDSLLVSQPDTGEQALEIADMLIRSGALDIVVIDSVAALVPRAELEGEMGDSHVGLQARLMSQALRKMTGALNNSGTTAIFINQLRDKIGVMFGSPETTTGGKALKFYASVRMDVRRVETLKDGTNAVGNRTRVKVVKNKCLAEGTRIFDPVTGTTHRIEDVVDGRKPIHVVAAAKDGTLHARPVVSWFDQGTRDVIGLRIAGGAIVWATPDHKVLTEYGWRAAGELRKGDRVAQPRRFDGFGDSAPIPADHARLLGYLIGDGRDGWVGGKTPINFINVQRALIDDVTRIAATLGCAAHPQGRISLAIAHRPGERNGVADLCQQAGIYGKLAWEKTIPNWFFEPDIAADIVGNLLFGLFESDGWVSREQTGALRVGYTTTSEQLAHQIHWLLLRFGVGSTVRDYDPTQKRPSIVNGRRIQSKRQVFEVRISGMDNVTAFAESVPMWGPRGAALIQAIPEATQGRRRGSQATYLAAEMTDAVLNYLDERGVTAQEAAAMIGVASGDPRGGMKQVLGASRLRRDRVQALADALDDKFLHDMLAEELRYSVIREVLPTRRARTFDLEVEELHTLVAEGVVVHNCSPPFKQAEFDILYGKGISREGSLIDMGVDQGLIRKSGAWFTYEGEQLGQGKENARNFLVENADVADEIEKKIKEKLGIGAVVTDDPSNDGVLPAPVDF
# Arbovirus anti: blocks arbovirus infection; arbovirus infection cell-based antiviral screen; inhibition, % at 10 µM; actives 0.37% (n = 200,000); AID 1251;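 active means inhibition from about 30%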;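 further: bluetongue infection of BSR cells; cell survival read as ATP light after 72 h; 0% = infected wells without compound and 100% = uninfected wells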
# Mtb growth: M. tuberculosis H37Rv growth inhibitors, H37Rv strain (AID 1626); actives 0.95% (n = 220,000); inhibition, % at 10 µM; hits with a dose series show IC50 in µM; M. tuberculosis H37Rv growth inhibition; higher % means a stronger effect;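 active means confirmed in a dose series; inconclusive means inhibition above 80% but not taken into the dose series; inactive means below 80% or under 30% at every dose of the series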;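 further: bacteria incubated seven days before Alamar blue readout; 0% = bacteria only wells and 100% = bacteria with antibiotic wells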
# Active calls of the source: *; u = inconclusive; x = no result given. This is a subset; count on the stated rates, not on these rows.
# Every second line gives: YopH PTP inh	Mtb betalactam	RecA splice inh	Arbovirus anti	Mtb growth
1	O=C1c2ccc3c4c(ccc(c24)C(=O)N1c1ccc(O)cc1)C(=O)N(c1ccc(O)cc1)C3=O
 : x	-1.3	2.0	-17.1	-1.2%
2	O=C(CN1CCN(C(=O)c2ccco2)CC1)Nc1cccc([N+](=O)[O-])c1
 : x	-6.6	-2.0	2.8	-2.8%
3	CCn1cc(C(=O)NCCCOC(C)C)c(=O)c2cc(S(=O)(=O)N3CCCC3)ccc21
 : x	-1.0	0.1	x	x
4	O=C(Nc1cccc(C(F)(F)F)c1)OCCN1CCN(Cc2ccccc2)CCC1=O
 : -12.2	37.6	-4.2	-9.1	-3.2%
5	O=[N+]([O-])c1cccnc1Sc1ccc(Br)cc1
 : x	-10.4	-6.7	x	x
6	COC(=O)c1ccc(-c2ccco2)n1Cc1nc(-c2ccc(OC)c(OC)c2)oc1C
 : -15.6	-9.3	9.5	-10.0	1.9%
7	CC(=O)c1c(C)oc2ccc(N(C(=O)c3ccncc3)S(=O)(=O)c3ccccc3)cc12
 : x	-13.0	-0.2	13.7	13.1%
8	Cc1nn(C(C)C(=O)NC2CCC(C)CC2)c(=O)c2nn(-c3ccccc3)c(C)c12 (stereo not drawn)
 : x	-1.4	4.8	x	x
9	C=CCNC(=O)C(=O)N/N=C/c1ccco1
 : -12.9	-4.6	2.2	3.7	-0.8%
10	CN(C)c1nc2c(N)ncnc2n1[C@H]1O[C@@H](CO)[C@H](O)[C@@H]1O
 : x	6.5	-0.6	x	x
11	CCCCn1c(N)c(N(CCC(C)C)C(=O)c2ccc(C)c(S(=O)(=O)N3CCOCC3)c2)c(=O)[nH]c1=O
 : x	-10.2	-2.2	x	x
12	CCOCCCNC(=O)C(NC(=O)Cc1cccs1)c1ccc(OC)cc1 (stereo not drawn)
 : x	-5.2	x	1.3	5.6%
13	Cc1cccc(NC(=O)CNCC(=O)Nc2cccc(C)c2C)c1C
 : x	3.6	-1.2	x	x
14	CCS(=O)(=O)N1CCC(C(=O)NCc2ccc(OC)cc2)CC1
 : x	0.6	-0.8	12.3	-12.6%
15	COc1ccc(CC(=O)Nc2sccc2C#N)cc1S(=O)(=O)N1CCOCC1
 : x	-1.6	0.3	x	x
16	CC1CCc2ccccc2N1C(N)=Nc1ccccc1 (stereo not drawn)
 : x	3.8	-0.5	-12.7	-1.9%
17	COc1ccc(-c2cn3nc4c(nc3n2)CCCC4)cc1
 : -12.3	x	x	-4.9	x
18	O=C(COC(=O)CCCOc1ccccc1)NC1CCS(=O)(=O)C1 (stereo not drawn)
 : x	-8.1	1.5	x	x
19	CCOC(=O)C1CCN(C(=O)CCc2nnc3ccc(N4CCN(C)CC4)nn23)CC1
 : x	1.2	-5.6	x	x
20	C/C(=N/O)c1ccc2c(c1)OCCOCCOc1cc(/C(C)=N/O)ccc1OCCOCCO2
 : -22.0	76.2	0.8	16.4	-1.7%
21	COc1ccc(C2C(C#N)=C3NC(=O)c4c(sc5c4CCCCC5)N3C3=C2C(=O)CC(C)(C)C3)cc1 (stereo not drawn)
 : -11.0	88.1	-0.7	-24.5	68.3%
22	CCc1ccc(NC(=O)NCC2CCN(Cc3cccc(Cl)c3)CC2)cc1
 : x	5.4	2.9	x	x
23	O=c1c2cc(Br)ccc2nc(-c2cccc(Cl)c2)n1O
 : x	84.1	-2.4	x	x
24	COc1ccccc1Oc1ncnc2c1oc1ccccc12
 : x	-0.4	0.1	2.5	3.8%
25	COc1ccccc1Oc1ccc2c(c1)C(=O)N(c1cccc3ncccc13)C2=O
 : -15.0	x	3.1	-4.5	3.6%
26	COCCCNc1nc2c(c(=O)[nH]c(=O)n2C)n1CC(O)COc1cccc(C)c1 (stereo not drawn)
 : -21.9	-2.8	-4.9	-3.8	45.7%
27	N[C@@H](Cc1ccccc1)C(=O)N1CCC(C(=O)NCC(=O)NCC(=O)O)CC1
 : x	-2.8	-1.7	x	x
28	COc1cc(-c2nnc(COC(=O)c3cc(C)nc4ccc(C)cc34)o2)cc(OC)c1OC
 : -22.7	-6.0	-0.9	-1.5	3.6%
29	CCCCn1c(N)c(N(CCOC)C(=O)COC(=O)/C=C/c2ccc(Br)cc2)c(=O)[nH]c1=O
 : x	-7.1	-0.3	x	x
30	COC(=O)N/N=C/c1ccc(-c2ccc(Cl)cc2Cl)o1
 : x	94.9	0.0	x	u

# Molecules shown so far with a cyano group (two):
# Every second line gives: YopH PTP inh	Mtb betalactam	RecA splice inh	Arbovirus anti	Mtb growth
15	COc1ccc(CC(=O)Nc2sccc2C#N)cc1S(=O)(=O)N1CCOCC1
 : x	-1.6	0.3	x	x
21	COc1ccc(C2C(C#N)=C3NC(=O)c4c(sc5c4CCCCC5)N3C3=C2C(=O)CC(C)(C)C3)cc1 (stereo not drawn)
 : -11.0	88.1	-0.7	-24.5	68.3%

# Continued.
# Every second line gives: YopH PTP inh	Mtb betalactam	RecA splice inh	Arbovirus anti	Mtb growth
31	COc1ccc(N2CCN(C(=O)Cn3cncn3)CC2)cc1
 : x	-7.2	-6.9	-1.6	-2.1%
32	N/C(=N/OCC(=O)Nc1cccc2ccccc12)c1nonc1N
 : 11.8	11.6	3.6	2.6	-5.2%
33	COc1ccc(Oc2ccccc2C=O)cc1
 : 2.8	2.4	-4.3	-3.3	13.4%
34	O=C(COc1ccc(S(=O)(=O)N2CCOCC2)cc1)NCC1CCCO1 (stereo not drawn)
 : x	-9.8	-2.0	x	x
35	Cc1c(C(=O)N/N=C/c2ccc(Cl)cc2)[nH]c2ccc(Cl)cc12
 : -16.4	5.6	-1.3	-25.6	9.8%
36	O=C(NCCCN1CCN(c2ccccc2F)CC1)Nc1ccccc1[N+](=O)[O-]
 : x	-5.8	2.7	-4.9	2.4%
37	CCOC(=O)c1ccc(NC(=O)c2cnccn2)cc1
 : -9.5	x	-1.3	-0.3	38.2%
38	COc1ccc(/C=C(/NC(=O)/C=C/c2ccccc2)C(=O)NCCCCCC(=O)O)cc1
 : x	-2.8	-0.1	x	-3.2%
39	O=C(NC1CCS(=O)(=O)C1)/C(=C\c1ccc(F)cc1)NC(=O)c1ccccc1 (stereo not drawn)
 : x	1.2	-1.7	8.9	-1.1%
40	Cc1cccnc1CNC(=O)C1CCC(=O)N(CCc2cccc(F)c2)C1 (stereo not drawn)
 : x	4.0	-1.0	x	x
41	CCN(CC)C(=O)CSC1=N/C(=C/c2ccco2)C(=O)N1c1ccc(OC)c(Cl)c1
 : 13.2	0.2	15.6	36.5*	9.9%
42	COc1ccc(N(C(C)C(=O)N2CCCC2)S(C)(=O)=O)cc1 (stereo not drawn)
 : x	1.7	1.1	x	x
43	O=c1[nH]c(=O)n(Cc2ccc(F)cc2)c(O)c1/C=N/Nc1ccccc1
 : x	83.9	-1.9	x	56.7%
44	CC(=O)O[C@H]1CC[C@@]2(C)[C@@H](CC[C@@H]3[C@@H]2CC[C@]2(C)[C@@H](C(C)(C)O)C[C@@H]32)C1
 : x	-6.5	8.9	x	x
45	C=C1CCC[C@]2(C)C[C@H]3OC(=O)C(CNCCN(C)C)[C@H]3CC12 (stereo partly drawn)
 : x	3.6	1.6	x	x

# Whole records, quoted from the list.
# O=C(COc1ccc(S(=O)(=O)N2CCOCC2)cc1)NCC1CCCO1 (stereo not drawn) is listed with YopH PTP inh = x; Mtb betalactam = -9.8; RecA splice inh = -2.0; Arbovirus anti = x; Mtb growth = x
# COc1ccc(/C=C(/NC(=O)/C=C/c2ccccc2)C(=O)NCCCCCC(=O)O)cc1 is listed with YopH PTP inh = x; Mtb betalactam = -2.8; RecA splice inh = -0.1; Arbovirus anti = x; Mtb growth = -3.2%
# COc1ccc(N(C(C)C(=O)N2CCCC2)S(C)(=O)=O)cc1 (stereo not drawn) is listed with YopH PTP inh = x; Mtb betalactam = 1.7; RecA splice inh = 1.1; Arbovirus anti = x; Mtb growth = x

# New compounds follow.
# Every second line gives: YopH PTP inh	Mtb betalactam	RecA splice inh	Arbovirus anti	Mtb growth
46	Cc1cc(C)c(C#N)c(N2CCN(CCOc3ccc(Cl)cc3)CC2)n1
 : -21.8	2.7	10.0	11.2	11.5%
47	O=C(CCn1cnc2ccccc2c1=O)Nc1ccc2c(c1)OCCO2
 : 0.1	1.3	-0.4	2.5	-12.4%
48	COc1ccc(N2CCOCC2)c(NC(=O)c2cccs2)c1
 : x	5.4	1.7	x	x
49	Cn1nccc1C(=O)Nc1ccc(S(=O)(=O)N2CCCC2)cc1
 : x	-0.1	-3.0	x	x
50	Cc1ccc(NC(=O)CSc2nc3ccccc3c(=O)n2CCCC(=O)N2CCCC2)cc1
 : -30.4	0.4	1.4	-23.3	1.9%
51	CCCCC(=O)N/N=C(\C)CC(=O)Nc1ccccc1Br
 : -28.9	-0.5	0.8	1.8	0.7%
52	Cc1ccc(S(=O)(=O)NNC(=O)CCC(=O)Nc2ccc(C)cc2C)cc1
 : -19.9	0.4	-9.9	-0.3	-6.3%
53	O=C1Nc2ccccc2Oc2cc([N+](=O)[O-])cc(Oc3ccccc3)c21
 : -33.2	3.1	-1.5	-5.3	-2.2%
54	Cc1ccc(N=Nc2cc(C)ccc2N)cc1
 : x	5.0	4.9	x	-4.6%
55	COc1ccc(CCN(C)C(=O)CN2C(=O)NC3(CCCCC3C)C2=O)cc1OC (stereo not drawn)
 : x	-4.1	-2.5	x	x
56	O=C(C1CCCO1)N1CCN(C(=S)Nc2ccc(Cl)c(Cl)c2)CC1 (stereo not drawn)
 : -20.5	1.6	0.0	10.5	4.3%
57	CCn1c(C)nc2cc(C(=O)OCCC(F)(F)F)ccc21
 : -34.7	5.1	-1.1	-3.3	4.3%
58	CCCCN(C(=O)c1cccc(S(=O)(=O)N(C)c2ccc(C)cc2)c1)c1c(N)n(CCCC)c(=O)[nH]c1=O
 : x	-8.2	2.4	x	x
59	Cc1c(Cl)ccc(S(=O)(=O)N2CCN=C2c2ccccc2)c1Cl
 : -18.4	-2.9	5.2	14.9	13.1%
60	O=C(NC(=O)c1ccc(F)cc1)Nc1nc(-c2cccs2)cc(C(F)(F)F)n1
 : -29.4	1.0	-1.9	0.5	x
61	COc1cc(SC)ccc1C(=O)NC(C)C
 : x	-7.4	-1.7	4.7	4.6%
62	COc1ccccc1NS(=O)(=O)c1cccc(C(=O)N/N=C/c2ccc(C)o2)c1
 : x	-3.0	-0.3	-1.5	-1.5%
63	Clc1ccccc1/C=C/c1ccnc2ccccc12
 : x	10.2	21.5	x	8.6%
64	O=C(O)c1cccnc1Sc1ccccc1Cl
 : x	-15.5	1.2	x	-2.8%
65	CC1(c2ccc(O)cc2)NC(=O)N(c2ccccc2)N1 (stereo not drawn)
 : x	-3.1	-3.4	-33.1	u
66	CCn1ccnc1CN1CCCC(C(=O)c2cc(Cl)ccc2OC)C1 (stereo not drawn)
 : x	6.8	1.9	13.4	-22.0%
67	COc1ccc(-c2nc(-c3ccccc3)c(-c3cc([N+](=O)[O-])ccc3C)[nH]2)cc1OC
 : 13.1	58.4	7.2	-19.3	17.5%
68	OCCNc1nc(-c2ccccc2)c2ccccc2n1
 : -23.6	0.9	-17.6	4.4	x
69	COc1ccccc1NC(=O)N1CCc2[nH]c3ccc(F)cc3c2C1
 : -13.6	-1.2	-0.7	-2.7	6.8%
70	CCN(CC(=O)Nc1ccc(NC(C)=O)cc1)C(=O)C1CCC1
 : x	-3.9	0.0	x	x
71	Cc1nc(-c2ccc3c(c2)OCCCO3)cs1
 : x	6.8	0.2	x	-1.0%
72	COc1ccc(CCNC(=O)C2CCN(C(=O)N(C)C)CC2)cc1OC
 : -35.2	2.4	-1.0	9.6	4.6%

# Molecules above that have a COOH group, in the order listed:
# Every second line gives: YopH PTP inh	Mtb betalactam	RecA splice inh	Arbovirus anti	Mtb growth
27	N[C@@H](Cc1ccccc1)C(=O)N1CCC(C(=O)NCC(=O)NCC(=O)O)CC1
 : x	-2.8	-1.7	x	x
38	COc1ccc(/C=C(/NC(=O)/C=C/c2ccccc2)C(=O)NCCCCCC(=O)O)cc1
 : x	-2.8	-0.1	x	-3.2%
64	O=C(O)c1cccnc1Sc1ccccc1Cl
 : x	-15.5	1.2	x	-2.8%
